Sfp inh = qHTS Assay for Inhibitors of Bacillus subtilis Sfp phosphopantetheinyl transferase (PPTase) | AID 1490, 2009 | 310,000 tested, 3.5% active | Biochemical Sfp PPTase activity, qHTS | Potency, µM, without a hit: max response, negative = inhibition, usual class: inhibitors; active means well fitted inhibition curve with a large enough effect; inconclusive means small, poorly fitted or top-dose-only effect, or another doubt; inactive means no such curve, though single readings can be large or run the other way;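 further: the enzyme is Sfp with the accession as filed and its product quenches rhodamine fluorescence; potency means the concentration at half of the fitted maximal effect; 0% = enzyme reaction without inhibitor and -100% = no enzyme wells; top concentration of the series not given in the record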
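Sfp 15 nM + cpd, 15 min RT; start w/ rhodamine-CoA 5 uM, BHQ-2-YbbR 12.5 uM (final); 50 mM Hepes pH 7.6, 10 mM MgCl2, 0.01% NP-40, 0.01% BSA; read 525/598 nm at 0 and 30 min.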
Menin-MLL FL inh = qHTS Assay for Inhibitors Targeting the Menin-MLL Interaction in MLL Related Leukemias: Competition With Fluorescein Labeled MLL-derived Peptide. AID 1766, 2009. 290,000 tested, under 10 active. Fluorescence polarization, fluorescein-MLL peptide displacement from menin. FP activity change, % at 61.4 µM; inconclusive = falling polarisation curve, or a change in total fluorescence; inactive = total fluorescence flat and polarisation flat or rising; no compound was filed as active; the % refers to the polarisation; negative = inhibition;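 further: % of control where 0% means no effect; inhibitors lower the polarisation; unlabelled MLL peptide was the positive control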
TRPML1 inh = qHTS for Inhibitors of the Human Mucolipin Transient Receptor Potential 1 (TRPML1). Mucolipin-1 (Homo sapiens), Q9GZU1. TRPML1-inducible cells, Ca2+ dye fluorescence, FDSS; active compounds read low; inhibition of EC80 agonist-evoked calcium signal. activity change, negative = inhibition, % (no concentration beside the values). 390,000 tested, 0.02% active. AID 624415, 2012; in the data active means activity change below about -50%; inconclusive means about -30% to -50%; inactive means above about -30%;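 further: stimulus is agonist 54-4 at its EC80 concentration; on the % scale 0 is the no-effect control and ±100 the full control effect; compound concentration not given in the record; the text of the record puts the active cut at -80%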
Target sequence (Q9GZU1 whole entry, looked up): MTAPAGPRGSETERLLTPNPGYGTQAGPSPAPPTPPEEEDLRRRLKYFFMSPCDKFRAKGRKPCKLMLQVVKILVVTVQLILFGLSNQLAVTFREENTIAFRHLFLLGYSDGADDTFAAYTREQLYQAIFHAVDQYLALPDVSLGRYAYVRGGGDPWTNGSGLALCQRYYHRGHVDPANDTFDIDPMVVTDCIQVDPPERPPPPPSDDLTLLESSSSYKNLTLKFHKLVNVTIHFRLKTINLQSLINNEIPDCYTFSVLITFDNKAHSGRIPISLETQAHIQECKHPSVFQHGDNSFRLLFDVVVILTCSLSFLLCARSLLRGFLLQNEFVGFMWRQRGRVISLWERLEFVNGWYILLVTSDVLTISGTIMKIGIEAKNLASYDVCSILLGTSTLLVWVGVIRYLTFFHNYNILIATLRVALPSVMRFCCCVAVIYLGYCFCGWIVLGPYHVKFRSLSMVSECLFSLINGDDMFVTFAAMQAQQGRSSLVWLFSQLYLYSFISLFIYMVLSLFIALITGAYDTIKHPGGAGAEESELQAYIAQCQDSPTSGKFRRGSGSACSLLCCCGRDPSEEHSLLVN
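Tet-induced TRPML1-DL cells loaded with Ca8 no-wash calcium dye were read kinetically on FDSS. Compound addition was followed by EC80 agonist 54-4 (4 uM final); inhibition was read over 110 s.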
gsp antagonist = qHTS for Antagonists of gsp, the Etiologic Mutation Responsible for Fibrous Dysplasia/McCune-Albright Syndrome: qHTS | gsp-mutant cells, cAMP HTRF, 30 min; control for the full effect not named in the record | Potency, µM (top dose mostly 76.9 µM), for the others: at the top dose activity change, negative = inhibition, usual class: inhibitors | 340,000 tested, 0.4% active; active = falling curve of any shape with a large fitted effect; inconclusive = falling curve, mostly with a smaller effect; inactive = flat or rising curve; cell line not stated here;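 further: intracellular cAMP measured with PDE inhibitor Ro 20-1724 present during compound exposure; potency means the concentration at half of the fitted maximal effect; on the % scale 0 is the no-effect control and ±100 the full control effect; nearly all actives have a fitted effect of over 65% in size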
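HTRF cAMP read-out (cAMP-d2 plus anti-cAMP antibody-K in lysis buffer, 30 min RT). Before lysis, cells are exposed to compounds with […] for 30 min at 37C in DPBS containing Ca/Mg, BSA and Tween 20.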
gsp ag = qHTS for Agonist of gsp, the Etiologic Mutation Responsible for Fibrous Dysplasia/McCune-Albright Syndrome: qHTS | gsp mutant cells, cAMP HTRF, 30 min; control for the full effect not named in the record | Potency, µM (titrated, usually from 76.9 µM), for inactives: at the top dose activation (cAMP increase), usual class: activators | AID 624287, 2012 | 340,000 tested, 0.13% active; active = well fitted activation curve with a large enough effect; inconclusive = small, poorly fitted or top-dose-only effect, or another doubt; inactive = no such curve, though single readings can be large or run the other way; cell line not stated here;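 further: phosphodiesterase inhibitor Ro 20-1724 added with compounds to block cAMP breakdown; potency means the concentration at half of the fitted maximal effect; nearly all actives have a fitted effect of over 60% in size; about a fifth of the inactives were tested at one dose only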
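Cells in DMEM/10% FBS with G418 were pretreated with compounds in DMSO plus […] (300 uM stock) for 30 min at 37C. cAMP was measured by HTRF (cAMP-d2 plus anti-cAMP antibody-K) after 30 min at room temperature.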
ClpP mod = qHTS Assay for Activators of ClpP | ATP-dependent Clp protease proteolytic subunit (Bacillus subtilis (strain 168)), P80244 | purified B. subtilis ClpP, FRET peptide cleavage, 20 min | Potency, µM (series often up to 57.5 µM), for the others: at the top dose activity change, negative = active | 340,000 tested, 1.9% active | AID 651965, 2013; active = well fitted falling curve with a large enough effect; inconclusive = small, poorly fitted or top-dose-only effect; inactive = no such curve, though single readings can be large or run the other way; further: potency means the concentration at half of the fitted maximal effect; the source files actives as falling curves though it sought activators and does not explain the sign; nearly all actives have a fitted effect of over 65% in size; many hits overshoot -100%
Target sequence (P80244 whole entry, looked up): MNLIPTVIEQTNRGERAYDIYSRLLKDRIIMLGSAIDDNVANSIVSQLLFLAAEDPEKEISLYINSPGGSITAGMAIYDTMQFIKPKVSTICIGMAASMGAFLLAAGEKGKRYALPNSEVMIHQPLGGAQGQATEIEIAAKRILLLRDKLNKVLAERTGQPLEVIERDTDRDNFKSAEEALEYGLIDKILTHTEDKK
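FRET quenching reversal measured ClpP activation: 10 microg/mL B. subtilis ClpP at pH 8 with the FRET-FV decapeptide, read at 430 nm after 320 nm excitation. The 20-min minus 0-min signal was scaled between DMSO/no-enzyme wells and ADEP (5.8 microM final).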
TRPV1 potentiator = HTS Assay for Compounds that Act as Potentiators of the Vanilloid Receptor 1; TRPV1-expressing cells, Fluo-8 calcium influx, capsaicin EC20 potentiation; host cell line not named in the record; control for the full effect not named in the record; 320,000 tested, 0.02% active; potentiation, % at 8.33 µM; AID 540277, 2011; active means potentiation above 80%; inconclusive means 30% to 80%; inactive means below 30%; further: 0% is about no effect
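Cells expressing TRPV1 were dye-loaded with Fluo-8 and read kinetically: 10 s baseline, 3 min after compound (agonist portion), then 2 min after EC20 capsaicin (allosteric enhancer portion). Calcium-bound dye fluorescence at 480/520 nm.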
Numbers without * were called inactive; ? = inconclusive; nt = not tested or not shown; [ ] = remark or other dose.

Fields: TRPV1 potentiator, TRPML1 inh, Menin-MLL FL inh, ClpP mod, Sfp inh, gsp antagonist, gsp ag
1) CSc1cccc(N/C(=N/S(=O)(=O)c2ccccc2)NN)c1
→ 3, 6, 1.8, nt, -3%, 3%, -49%[inhibitor][15.4 µM]
2) CC1(C)CN(Cc2ccccc2)C(=O)[C@H]1CC(=O)Nc1ccccc1
→ nt, 1, nt, 0.3%, nt, nt, -52%[inhibitor]
3) COc1cc(NC(=O)CSc2ccc3c(c2)OCCO3)cc(OC)c1OC
→ -1, 34, 1.5, -1.6%, 5%, -2%[15.4 µM], -9%
4) COc1ccc(C(=O)NC(=C(Cl)Cl)S(=O)(=O)c2ccc(C)cc2)cc1
→ 9, 3, nt, -0.8%, 21%, -1%, ?
5) Cc1ccc(CNC(=O)C2CC(c3ccccc3F)=NO2)cc1 (stereo not given)
→ 0, 1, -1.1, -3.4%, 7%, 5%, nt
6) Cc1ccc(NC(=O)c2cc(S(=O)(=O)Nc3ccc(C)cc3)cs2)cc1
→ nt, 34, nt, 5.9%, nt, -13%, -41%[inhibitor]
7) CCOC(=O)c1c(NC(=O)CSc2nnc(C)s2)sc2c1CCN(C)C2
→ -5, 8, ?, 8.9%, 18µM*, -1%, 12%
8) O=C1/C(=C\c2c(NCCOCCO)nc3ccccn3c2=O)SC(=S)N1Cc1ccco1
→ 2, 14, ?, nt, 40µM*, 1%, ?
9) CN(CC(=O)NCCCc1ccccc1)Cc1ccc(Br)cc1
→ 10, -4, -1.8, 1.2%, -24%, 5%, ?
10) COc1ccc(CCNC(=O)c2cccnc2)cc1
→ 3, -1, -3.4, 0.3%, 2%, -13%, -61%[inhibitor]
11) CCc1ccc(N2CC(C(=O)OCc3csc(CC(=O)Nc4ccccc4C)n3)CC2=O)cc1 (stereo not given)
→ 3, 14, nt, 0.3%, nt, 9%, -19%
12) CCCCC(=O)Nc1nn(CC(C)C)c2nc3ccccc3cc12
→ -11, -5, 6.1, -22%, 14%, 6%, 22%
13) CCCS(=O)(=O)c1c(S(=O)(=O)CCC)c2c(N)cccn2c1C(=O)OC
→ 1, -4, ?, nt, 28µM*, 2%, 6%
14) O=C(Nc1sc2c(c1C(=O)N1CCOCC1)CCCCC2)c1cccnc1
→ 0, -12, -5.3, nt, 21%, nt, -7%[15.4 µM]
15) CC1=CC(=O)c2c(O)ccc(O)c2C1=O
→ 25, nt, ?, nt, 25µM*, nt, nt
16) Cc1cccc(Nc2ccccc2C(=O)NCc2ccco2)c1C
→ 10, 5, 5.1, 1.3%, 17%, -23%, -39%
17) CCN1CCc2nc(N)sc2C1
→ 3, -8, 1.1, 1.5%, 11µM*, 6%, 5%[15.4 µM]
18) COc1ccc(NS(=O)(=O)c2cccc(C(=O)N3CCN(c4ccccc4O)CC3)c2)cc1
→ 1, 9, nt, 1.5%, nt, -15%, -15%
19) Oc1ccc(-c2n[nH]c(C(F)(F)F)c2-c2ccccc2)c(O)c1
→ 1, 42, -6.3, nt, 14%, -13%, 17%[15.4 µM]
20) Cc1cccc(C)c1NC(=O)C1(N(C(=O)c2ccccn2)c2ccc(O)cc2)CCCCC1
→ 3, 24, 0.5, nt, 7%, -10%, 23%
21) O=C(CSc1ncn[nH]1)Nc1ncc(C(F)(F)F)cc1Cl
→ -9, 11, 0.6, nt, 8%, 8%, 1%[15.4 µM]
22) CCOc1ccc(CCNC(=O)c2cccc(S(=O)(=O)N3CCN(C(C)=O)CC3)c2)cc1OCC
→ 0, 3, nt, 3.8%, nt, 1%, -48%
23) COc1ccc(NC(=O)c2cc(-c3ccccc3)on2)cc1OC
→ 7, 10, -3.0, -7.0%, 5%, 4%, 0%
24) CCOC(=O)c1cnc(SCc2ccc(C(C)(C)C)cc2)nc1N
→ -6, -22, 4.3, 4.4%, -27%, 2%, -16%
25) C[C@@H]1CN([C@@H](C)CO)C(=O)CCCn2cc(nn2)CO[C@H]1CN(C)S(=O)(=O)c1ccc2ccccc2c1
→ nt, 6, nt, 1.7%, nt, nt, -5%
26) CC(OC(=O)Nc1ccccc1)C(=O)OC1CCCCC1 (stereo not given)
→ nt, 29, nt, nt, nt, -3%, -25%
27) COCCn1c(-c2ccccc2Cl)nc2c(c(=O)c3ccccc3n2C)c1=O
→ 2, 9, 0.4, 18µM*, 15%, 1%, -24%
28) COc1ccc2c(c1)CC/C(=C/c1ccco1)C2=O
→ -11, 10, 2.7, -0.4%, -4%, -13%, 0%[15.4 µM]
29) COc1cc2c3nnc(-c4ccc(F)cc4)c-3cn(Cc3ccccc3F)c2cc1OC
→ -5, 1, ?, nt, ?, -13%, ?
30) CC(Oc1ccc(Br)cc1Br)C(=O)Nc1cccnc1 (stereo not given)
→ 15, -3, nt, 0.8%, 5%, -3%, 14%

3 compounds from above, ordered by SMILES length, descending.
Fields: TRPV1 potentiator, TRPML1 inh, Menin-MLL FL inh, ClpP mod, Sfp inh, gsp antagonist, gsp ag
6) Cc1ccc(NC(=O)c2cc(S(=O)(=O)Nc3ccc(C)cc3)cs2)cc1
→ nt, 34, nt, 5.9%, nt, -13%, -41%[inhibitor]
27) COCCn1c(-c2ccccc2Cl)nc2c(c(=O)c3ccccc3n2C)c1=O
→ 2, 9, 0.4, 18µM*, 15%, 1%, -24%
17) CCN1CCc2nc(N)sc2C1
→ 3, -8, 1.1, 1.5%, 11µM*, 6%, 5%[15.4 µM]

Profiles, looked up by structure. Values in the order: TRPV1 potentiator | TRPML1 inh | Menin-MLL FL inh | ClpP mod | Sfp inh | gsp antagonist | gsp ag
COc1ccc(C(=O)NC(=C(Cl)Cl)S(=O)(=O)c2ccc(C)cc2)cc1 across the screens: 9 | 3 | nt | -0.8% | 21% | -1% | ?
CCOc1ccc(CCNC(=O)c2cccc(S(=O)(=O)N3CCN(C(C)=O)CC3)c2)cc1OCC across the screens: 0 | 3 | nt | 3.8% | nt | 1% | -48%

Next part:
Fields: TRPV1 potentiator, TRPML1 inh, Menin-MLL FL inh, ClpP mod, Sfp inh, gsp antagonist, gsp ag
31) O=C(COC(=O)COc1ccc(Cl)cc1Br)NC1CC1
→ nt, -8, nt, nt, nt, 2%, ?
32) Cc1cccc(Oc2cc(N)cc([N+](=O)[O-])c2)c1
→ -3, 16, -0.1, -1.6%, 0%, -1%, 7%
33) COc1ccccc1-c1cc(C(=O)N2CCCC2)no1
→ 9, 4, 5.5, nt, 3%, -6%, 0%
34) Cc1c(Cl)cccc1NC(=O)CC1NCCNC1=O (stereo not given)
→ 11, -2, -6.5, 3.3%, 11%, 7%, 21%
35) COC(=O)C1=C(C)Nc2ncnn2C1c1ccccn1 (stereo not given)
→ -5, 17, -2.9, -1.0%, 10%, 8%, ?
36) COc1cccc(OC)c1C(=O)NCCSC1CCCCC1
→ -5, 5, -1.4, 1.7%, 17%, 0%, 3%
37) C/C(=N/NC(=O)c1ccc(Br)o1)c1cccc(NC(=O)c2ccc(F)cc2)c1
→ -17, 12, nt, 0.1%, 12%, -1%, 6%[15.4 µM]
38) CCOC(=O)C1=CN(Cc2cccc(F)c2)S(=O)(=O)N(CC)C1c1ccccc1 (stereo not given)
→ nt, 33, nt, -3.3%, nt, 4%, nt
39) CC1CCN(CCOc2ccccc2-c2ccccc2)CC1
→ 16, 5, -0.8, 1.1%, ?, 14%, 7%[15.4 µM]
40) N#C/C(=C\c1c[nH]c2ccccc12)C(N)=O
→ 8, 15, 3.7, -1.5%, -2%, 4%, -28%
41) Cc1cccnc1CN1CCN(C(=O)CCc2nnc(CCc3ccccc3)o2)CC1
→ -10, 21, -4.1, nt, -10%, 5%, -5%
42) CCS(=O)(=O)N1CCC(C(=O)Nc2cc([N+](=O)[O-])ccc2C)CC1
→ -5, -20, 0.5, 0.2%, 2%, 10%, -12%
43) COc1ccc(C(=O)Nc2ccc(S(=O)(=O)Nc3nccc(C)n3)cc2)cc1
→ 1, -6, -1.3, 1.2%, 16%, -8%, 4%
44) COc1cc2c(cc1OC)-c1cc3ccc4c(c3c[n+]1CC2)OCO4
→ 5, -6, ?, ?, -7%, ?, ?
45) CCc1nc(N2CCC3(CC2)OCCO3)c2nnn(Cc3ccccc3Cl)c2n1
→ 5, -3, -2.8, -4.9%, 6%, ?, 1%
46) COc1ccc(Cn2nnnc2CN2CCc3ccccc3C2)cc1
→ -12, -3, -0.2, -0.7%, 20%, -8%, -5%
47) O=C(CCNC(=O)c1ccco1)Nc1cccc(Br)c1
→ 2, -3, 1.1, -0.8%, -6%, -16%, 9%[15.4 µM]
48) CN(C(=O)CN1C(=O)NC(C)(CCc2ccccc2)C1=O)c1ccccc1 (stereo not given)
→ -3, -28, nt, -1.2%, nt, 14%, -10%
49) CC(C)(C)SCCNC(=O)c1ccc(Cl)c(S(=O)(=O)N2CCOCC2)c1
→ nt, -6, nt, -0.4%, nt, -9%, -18%
50) O=[N+]([O-])c1ccc(O)c(/C=N/Nc2nn[nH]n2)c1
→ -10, 19, -2.0, nt, 14%, -6%, -2%
51) COc1ccc(COc2cccc(C=O)c2)cc1
→ ?, -3, nt, 3.6%, nt, 8%, nt
52) CC(Oc1ccccc1)C(=O)NC1CC(C)(C)NC(C)(C)C1 (stereo not given)
→ 4, -14, 0.7, 1.8%, 12%, 8%, 2%
53) CC[C@H]1OC(=O)[C@H](C)[C@@H](O[C@H]2C[C@@](C)(OC)[C@@H](O)[C@H](C)O2)[C@H](C)[C@@H](O[C@@H]2O[C@H](C)C[C@H](N(C)C)[C@H]2O)[C@](C)(OC)C[C@@H](C)C(=O)[C@H](C)[C@@H](O)[C@]1(C)O
→ 3, -6, -1.0, -2.6%, 19%, -4%, nt

Bioassay records (PubChem)
